From PubChem
Myc binder: c-Myc (human) binding. P01106. small molecule microarray, His-c-Myc binding, anti-His fluorescence. calls only. 17,000 tested, 1.5% active. AID 624141;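 active = spot fluorescence over background with P-value below 7% in all four replicate spots, showing protein binding; compounds were printed on slides so no solution concentration is given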;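 also: score is binary with 100 for all four spots passing and 0 otherwise; about 2 pmol printed per array spot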
p53 mut binder: binds human mutant p53 on microarray; small molecule microarray binding, anti-GST fluorescence; calls only; 17,000 tested, 0.4% active; AID 624136;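 active = compounds whose four printed spots each glow above background more than chance allows, each with a p-value under 7%; compounds were printed on slides so no solution concentration is given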;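 also: about 2 pmol printed per array spot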
STAT3 SMM: STAT3 (human) binding. calls only. 17,000 tested, 0.2% active. P40763. Small molecule microarray, His-STAT3 binding, anti-His fluorescence;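 active = compounds whose four printed spots each show fluorescence over background unusually high for their array block, chance value under 7%; compounds were printed on slides so no solution concentration is given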;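 also: about 2 pmol printed per array spot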
ID4 binder: binders of human ID4 protein | 31,000 tested, 1.2% active | small molecule microarray, Flag-ID4 binding, fluorescence F/B | calls only;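 active = spot signal over background at p below 0.07 in all four prints; compounds were printed on slides so no solution concentration is given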;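 also: a binder raises fluorescence above local background on the spot; about 2 pmol printed per array spot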
Calls only; i = inactive; . = no result given. These rows are one share of the data; the hit share may differ from the screen's.

SMILES | Myc binder | p53 mut binder | STAT3 SMM | ID4 binder
CCC1C2CC[N+]3([O-])CCC4(C(=C2C(=O)OC)Nc2c(OC)cccc24)C13 (stereo unspecified) | i | i | i | .
COc1ccc(C(=O)OC2C[C@H]3CC[C@H](C2)N3C)cc1OC (stereo partly specified) | i | i | i | i
COC(=O)N1CCN(C(=O)Cc2ccc(Cl)c(Cl)c2)C(CN2CCCC2)C1 (stereo unspecified) | i | i | i | i
COC[C@H]([C@@H](O)[C@@H](O)C(=O)NCC[C@@H](C)c1nc(/C=C/C[C@H]2OC3(C[C@H](O)[C@H]2C)OC([C@@H](C[C@@H](O)[C@@H](C)[C@@H](O)[C@@H](C)/C=C(C)/C(C)=C/C=C/C(C)=C\C#N)OC)[C@@H](OP(=O)(O)O)C3(C)C)co1)N(C)C (stereo partly specified) | i | i | i | i
CC(C)=CCCN1CCC(NC(=O)[C@](O)(c2ccccc2)C2CCCC2)CC1 | i | i | i | i
Cc1ccc2c(c1)Cc1c(C(=O)NN3CCCCC3)nn(-c3ccc(Cl)cc3Cl)c1-2 | i | i | i | i
C=CC1C[N+]2([O-])CCC1CC2C(O)c1ccnc2ccccc12 (stereo unspecified) | i | i | i | .

Some entries already given with just p53 mut binder and ID4 binder:
structure	p53 mut binder	ID4 binder
COC(=O)N1CCN(C(=O)Cc2ccc(Cl)c(Cl)c2)C(CN2CCCC2)C1 (stereo unspecified)	i	i
C=CC1C[N+]2([O-])CCC1CC2C(O)c1ccnc2ccccc12 (stereo unspecified)	i	.
COC[C@H]([C@@H](O)[C@@H](O)C(=O)NCC[C@@H](C)c1nc(/C=C/C[C@H]2OC3(C[C@H](O)[C@H]2C)OC([C@@H](C[C@@H](O)[C@@H](C)[C@@H](O)[C@@H](C)/C=C(C)/C(C)=C/C=C/C(C)=C\C#N)OC)[C@@H](OP(=O)(O)O)C3(C)C)co1)N(C)C (stereo partly specified)	i	i

Reformatted: results already given.
Cc1ccc2c(c1)Cc1c(C(=O)NN3CCCCC3)nn(-c3ccc(Cl)cc3Cl)c1-2
  Myc binder: i | p53 mut binder: i | STAT3 SMM: i | ID4 binder: i

C=CC1C[N+]2([O-])CCC1CC2C(O)c1ccnc2ccccc12 (stereo unspecified)
  Myc binder: i | p53 mut binder: i | STAT3 SMM: i | ID4 binder: .
